# Source: PubChem (several laboratories)
# PABP FP inh – blocks human PABP binding to poly(A) RNA; P11940; fluorescence polarization; inhibition, % at 35 µM; actives 1% (n = 290,000); AID 2014;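 active means 50% or more with normal probe brightness, or confirmed in later tests; inconclusive means above 50% with abnormal brightness, or retests that disagree; inactive means below 50% or failed in later tests; about a fifth of its hits are not listed in these tables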;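 further: calls also rest on retests at 20 µM and on dose response follow-up; controls were probe without protein and protein plus probe with vehicle; some compounds called inactive have numbers as strong as hits; many hits fall short of the cut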
# Target sequence (P11940 whole entry, looked up): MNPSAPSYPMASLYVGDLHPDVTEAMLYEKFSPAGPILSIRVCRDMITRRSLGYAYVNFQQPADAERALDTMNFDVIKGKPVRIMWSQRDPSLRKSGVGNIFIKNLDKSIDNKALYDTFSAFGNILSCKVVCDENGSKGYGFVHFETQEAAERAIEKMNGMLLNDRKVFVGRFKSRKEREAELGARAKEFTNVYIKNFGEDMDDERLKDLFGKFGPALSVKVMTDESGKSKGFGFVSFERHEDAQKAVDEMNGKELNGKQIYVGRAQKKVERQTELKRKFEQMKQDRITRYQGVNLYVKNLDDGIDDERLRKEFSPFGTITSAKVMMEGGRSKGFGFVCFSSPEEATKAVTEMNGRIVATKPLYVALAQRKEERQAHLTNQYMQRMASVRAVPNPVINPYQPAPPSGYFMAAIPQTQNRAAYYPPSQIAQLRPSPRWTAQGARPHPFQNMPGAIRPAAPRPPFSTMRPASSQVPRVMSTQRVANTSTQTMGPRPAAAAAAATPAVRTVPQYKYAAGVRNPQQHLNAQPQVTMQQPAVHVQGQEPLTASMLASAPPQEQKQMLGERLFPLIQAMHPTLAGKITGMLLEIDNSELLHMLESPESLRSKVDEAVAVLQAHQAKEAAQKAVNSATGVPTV
# Rce1 inhib – blocks yeast Ras-converting enzyme. Q03530. yeast membranes, quenched prenylated peptide cleavage fluorescence. calls only. actives 0.27% (n = 290,000). AID 2563;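 active means fall in fluorescence gain of 50% or more versus controls, with final raw signal at or below 3038400; inconclusive means same 50% fall but final raw signal above 3038400; inactive means fall in fluorescence gain under 50%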;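 further: plate controls were neutral control wells for no effect and wells lacking membranes for full effect; tested at 10 µM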
# Target sequence (Q03530 whole entry, looked up): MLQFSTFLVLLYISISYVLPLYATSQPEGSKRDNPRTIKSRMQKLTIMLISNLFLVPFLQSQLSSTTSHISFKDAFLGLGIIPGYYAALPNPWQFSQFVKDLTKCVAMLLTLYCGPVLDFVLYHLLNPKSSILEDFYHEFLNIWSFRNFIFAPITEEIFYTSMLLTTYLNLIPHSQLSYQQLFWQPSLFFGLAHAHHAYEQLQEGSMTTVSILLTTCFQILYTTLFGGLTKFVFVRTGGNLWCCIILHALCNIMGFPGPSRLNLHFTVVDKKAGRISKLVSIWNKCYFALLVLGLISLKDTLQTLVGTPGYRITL
# UUG fidelity – yeast start codon fidelity modulation; S. cerevisiae UUG-firefly luciferase reporter, luminescence/redox ratio; activity score, % at 18.7 µM; actives 0.13% (n = 350,000); AID 602363;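 active means replicate mean at a twofold rise or more, about +100% in these data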;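 further: firefly luciferase made from a UUG start codon reports start codon fidelity; reporter light over untreated wells divided by growth signal over untreated wells; some hits fall short of that in this replicate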
# Env fusion inh – inhibitors of HIV Env-mediated cell fusion; HeLa-JRFL Env/CEM21 cell fusion, luciferase; inhibition, % at 12.3 µM; actives 1.1% (n = 360,000); AID 651610;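 active means mean replicate inhibition score of at least 50 and every replicate individually at or above 50; inconclusive means only one of the two criteria met; inactive means mean below 50 and not all replicates reaching 50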;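 further: 0% = plate neutral controls and 100% = maraviroc near 300 nM; one replicate is shown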
# eIF4H inh – inhibitors of RNA binding by human eIF4H. actives 0.94% (n = 290,000). Q15056. inhibition, % at 35 µM. eIF4H fluorescence polarization binding assay. AID 2012;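 active means 50% or more with normal probe brightness, or confirmed in later tests; inconclusive means above 50% with abnormal brightness, or retests that disagree; inactive means below 50% or failed in later tests; about a fifth of its hits are not listed in these tables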;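 further: calls also rest on retests at 20 µM and on dose response follow-up; 0% = protein and probe with vehicle and 100% = probe without protein; strong numbers were not always called active; many hits fall short of the cut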
# MT1-MMP act inh – MT1-MMP (human) activation inhibition. P50281. HT1080 RFP-PRO-GFP cells, GFP/RFP ratio fluorescence, overnight; percent of plate control window, DMSO zero. GFP/RFP ratio change, % at 20 µM. actives 0.061% (n = 360,000). AID 651647;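 active means GFP/RFP ratio change of at least 30% with cell ATP level not reduced by more than half and red fluorescence within 50% of control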; further: strong numbers were not always called active
#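 Assay system – RFP-PRO-GFP reporter HT1080 cells · Compound dosing – single dose of 20 µM compound, 1% DMSO final · Incubation – overnight compound exposure at 37 °C · Measure – GFP/RFP fluorescence ratio · Benchmarks – DMSO wells and RFP-L50D-GFP cells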
# CSC inhib – cancer stem cell inhibition. cancer stem cell-like cells viability, luminescence. inhibition, % at 7.5 µM. actives 1.1% (n = 300,000);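 active means mean at 75% or more and at least half the replicates too; inconclusive means mean and replicates disagree; tested in HMLE shEcad cells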;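 further: 0% = median of negative and 100% = median of positive control wells; the first replicate is given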
# eIF4H inh retest – further read-out of eIF4H inh, marked with its call; inhibition, %; compound at 20 µM; confirmation average;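 mean of two retest wells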
# PABP FP inh retest – recorded beside PABP FP inh, whose call it bears; inhibition, %; compound at 20 µM; confirmation repeats;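 mean of two retest wells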
# MT1-MMP act inh RFP – also measured in MT1-MMP act inh; calls as there; RFP signal change, %; measured here: RFP expression control read;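 0 = vehicle wells; hits needed this value within 50% of zero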
# Active calls of the source: *; i = inactive; ? = inconclusive; nt = no result given.
SMILES,PABP FP inh,Rce1 inhib,UUG fidelity,Env fusion inh,eIF4H inh,MT1-MMP act inh,MT1-MMP act inh RFP,CSC inhib,others
CN(C)C(CNC(=O)CCc1nc2ccccc2s1)c1ccccc1 (stereo unspecified),-2,nt,-5,0,-9,2,1,-12,
CC1CCN(C2=NC(=O)/C(=C/c3cn(-c4ccccc4)nc3-c3cccc(S(=O)(=O)N(C)C)c3)S2)CC1,-3,i,nt,nt,-38,0,4,5,
COc1ccc(-c2nc(=S)[nH][nH]2)cc1,1,i,-23,nt,11,6,5,-1,
CSc1ccc(Cl)c(C(=O)N2CCN(c3ncccn3)CC2)c1,nt,nt,-18,4,nt,0,4,nt,
CNc1n[nH]c(=S)s1,-4,i,-19,2,-9,2,3,-8,
O=c1cc(CN2CCN(c3ccc(O)cc3)CC2)nc2scc(-c3ccccc3)n12,-4,i,1,2,44,1,-4,70,
CCC(c1nnc(SCC(=O)N2CC(=O)Nc3ccccc32)n1Cc1ccccc1)N(C)C (stereo unspecified),-3,i,-9,nt,5,-3,-1,-7,
Cc1noc(C)c1CSc1nnc(-c2ccccc2)o1,-4,i,nt,-5,-2,2,4,4,
CCCC(=O)Nc1nnc(S(=O)(=O)N2CCCC2)s1,-7,i,-27,5,-1,-2,0,-13,
Cc1cccc(OCc2nnc(SCC(=O)N3c4ccccc4CC3C)n2C)c1C (stereo unspecified),7,nt,-17,nt,-12,-1,-4,nt,
Cc1cc(N2CCOCC2)nc2ccc(NC(=O)CCC(=O)N3CCCC(C)C3)cc12 (stereo unspecified),-1,i,-2,-58,-6,-6,-1,0,
COc1ccccc1OCCSc1nc2ccccc2n1CCO,4,i,nt,22,-3,0,5,5,
O=C(/C=C/c1ccc(F)cc1)Nc1cccc(S(=O)(=O)N2CCOCC2)c1,nt,nt,-9,-8,nt,-1,-16,-11,
CCOC(=O)N1CCN(S(=O)(=O)c2ccc(Cl)cc2)CC1,14,i,-8,5,1,-5,-3,-14,
C=CCNC(=S)N1CCN(CCN=CC2=C(O)CC(c3ccc(Cl)cc3)CC2=O)CC1 (stereo unspecified),-8,i,-21,9,5,2,0,-14,
CCc1cccc(CC)c1NC(=O)CN1CCN(c2ccccc2)CC1,11,nt,11,nt,5,3,1,-7,
O=C(O)C(C=C(Cl)Cl)N1CCOCC1 (stereo unspecified),nt,nt,-9,25,nt,0,4,nt,
Cc1cc[n+](CCC(=O)O)c2ccccc12,17,i,-34,-2,20,2,3,nt,
Cc1nc2c(-c3ccccc3)cnn2c(N2CCOCC2)c1C,39,i,nt,-87,74,-4,-1,1,eIF4H inh retest=-9;PABP FP inh retest=1
CCCCNc1c2c3c(cccc3n(C)c1=O)C(=O)c1ccccc1-2,-6,i,-16,nt,?,-334,-6,63,
C=CCNC(=O)c1cc2nc(C3CC3)cc(C(F)F)n2n1,0,i,-1,nt,6,-3,1,nt,
O=C(Nc1nc2c(s1)CCCC2)c1cc(-c2ccncc2)nc2ccccc12,?,i,-9,-3,36,-11,-9,-14,
CSc1ncc(CN2CCc3c([nH]c4ccccc34)C2c2cccc(O)c2)cn1 (stereo unspecified),8,i,nt,3,-6,0,3,8,
Cc1ccc(Oc2coc3cc(OC(=O)c4cccs4)ccc3c2=O)cc1,2,i,-6,-131,0,6,-1,-3,
O=C(Cc1ccccc1)NC(NCCc1ccccc1)C(Cl)(Cl)Cl (stereo unspecified),-18,i,4,nt,-6,-3,-7,20,
Clc1ccccc1OCc1nc(-c2ccccn2)no1,-8,i,-23,-239,6,4,10,53,
COc1cccc(C(=O)CN2C(=O)C(C)(C)Oc3ccc(C(=O)N4CCCCCC4)cc32)c1,-8,i,3,-59,-5,0,-4,10,
COc1ccc(/C=C2\SC(=S)N(CCCC(=O)N3CCCCC3CCO)C2=O)cc1 (stereo unspecified),1,i,nt,28,3,-3,-6,-12,
Cc1ccccc1NCC(=O)N/N=C\C=C\c1cccc([N+](=O)[O-])c1,-6,nt,nt,19,2,-3,-3,16,
C[C@]12c3[nH]c4cc(-c5ccco5)ccc4c3CCN1C(=O)[C@@H](CC(=O)NCCc1ccccn1)C[C@@H]2C(=O)N1CCCCC1,nt,nt,-3,-5,nt,-4,-7,nt,
CCOc1cc(C(=O)CCC(=O)OCC(=O)N2c3ccccc3NC(=O)C2(C)C)ccc1O,6,i,9,-79,-10,-2,4,-9,
COCCOC(=O)c1ccc(NC(=O)COc2ccc([N+](=O)[O-])cc2)cc1,-3,i,-6,-1,0,1,-3,-14,
CCOc1ccccc1Nc1nc(-c2sc(C)nc2C)cs1,-7,i,nt,-12,-6,-5,-7,56,
CC(=O)Nc1sc(C)c(C)c1C(=O)OCC(=O)N(C)c1c(N)n(Cc2ccccc2)c(=O)[nH]c1=O,nt,i,nt,4,nt,1,4,-9,
COc1cc(OC)c(C(=O)/C=C/c2ccccc2)c(O)c1O,1,i,6,nt,-10,-2,-15,26,
O=C(CSc1ccc(Cl)cc1)OCC(=O)N1CCN(c2ccccc2)CC1,nt,nt,0,5,nt,5,2,nt,
CN(C)c1ccc(C(=O)NC2CCCc3ccccc32)cc1 (stereo unspecified),-7,i,-11,6,-7,-5,3,-14,
COC(=O)c1ccc2c(=O)n(CCN3CCOCC3)c(SCC(=O)c3ccccc3)nc2c1,-10,i,nt,-11,6,-4,-1,1,
Cn1c2ccccc2c2n[nH]c(=S)nc21,23,i,-21,24,4,1,2,4,
Cc1nnc2c(SC(C)C)nc3ccccc3n12,0,i,-16,3,-9,0,-2,-19,
C=CCN1C(=O)C(CCCC)NC1=S (stereo unspecified),-4,i,-13,-10,3,3,8,-10,
CC(C)c1nnc(NC(=O)C2CCCCC2)s1,?,i,-13,-22,0,6,7,-3,
CN(C)S(=O)(=O)c1ccc(C(=O)OCC(=O)c2csc(N3CCCCC3)n2)cc1,nt,nt,-1,nt,nt,-2,1,-9,
CC1(C)C(=O)Nc2ccccc2N1C(=O)COc1ccc(S(=O)(=O)N2CCOCC2)cc1Cl,21*,i,10,nt,64,-1,0,-8,eIF4H inh retest=48;PABP FP inh retest=62*
CC(C)(C)N(NC(=O)Nc1ccccc1)C(=O)c1ccccc1Cl,-1,i,-11,nt,-1,4,4,-5,
CS(=O)(=O)N1CCN(c2ccccc2NC(=O)c2cccnc2Cl)CC1,-3,i,-2,nt,2,2,5,2,
CC1(C(=O)Nc2cccc(C(F)(F)F)c2)Cc2c(-c3cccc(C(N)=O)c3)ccnc2O1 (stereo unspecified),nt,nt,12,5,nt,0,-3,nt,
COc1ccc(C(=O)N/C(=C\c2ccco2)C(=O)NCc2cccnc2)cc1,8,i,nt,nt,61*,-3,3,-3,eIF4H inh retest=88*;PABP FP inh retest=29
COc1cccc(OC)c1C(=O)NC(=S)Nc1ccc(S(=O)(=O)Nc2nccs2)cc1,1,i,nt,-10,12,6,1,nt,
N/C(=N\OC(=O)c1cccc(Br)c1)c1ccccn1,4,i,-78,-39,-8,-4,-1,-7,
# Other entries follow:
SMILES,PABP FP inh,Rce1 inhib,UUG fidelity,Env fusion inh,eIF4H inh,MT1-MMP act inh,MT1-MMP act inh RFP,CSC inhib,others
CCCN=C1CC(C)(C)CC(=O)/C1=C(/O)CCCN1C(=O)c2ccccc2C1=O,8,i,-11,1,-8,-4,-5,-1,
O=C(CSCc1ccccc1Cl)NNC(=S)Nc1ccccc1,5,i,-6,-10,13,8,1,-7,
O=C(CSc1nc2ccccc2c(=O)n1CC1CCCO1)Nc1ccccc1Cl (stereo unspecified),6,i,14,-5,-9,1,0,-11,
CN(C(=O)c1ccc(NC(=O)Cc2ccc(NC(=O)C3CCCN(C(=O)C4CC4)C3)cc2)cc1)C1CC1 (stereo unspecified),nt,nt,8,9,nt,8,3,-8,
Clc1ccc(-c2nc3ncccn3c2Nc2ccc3c(c2)OCCO3)cc1,-6,i,-14,-288,-11,6,-3,-6,
COc1ccc(Cl)cc1NC(=O)CN(C)C(=O)c1cc(-c2cccs2)nn1-c1ccccc1,nt,i,-3,31,nt,0,-4,46,
O=C(NCCN1CCCCC1)c1cc(Cl)ccc1Cl,-2,i,-12,1,-2,0,1,-4,
COc1ccc(Nc2ccccc2)c(C)c1,0,i,nt,nt,2,4,2,nt,
COc1ccc(C2c3cc(OC)c(OC)cc3CC3C(=O)OCC32)cc1OC (stereo unspecified),nt,nt,11,26,nt,5,4,nt,
O=C(O)c1ccc(-n2nncc2-c2ccco2)cc1,0,i,1,-5,-12,0,3,-7,
Cc1cc(C)c(C)c(OCCOCCNCc2ccccc2)c1,15,i,nt,22,7,2,-1,30,
OCCN1CCN(c2ncnc3c2ncn3[C@H]2CN(Cc3ccncc3)C[C@@H](CO)O2)CC1,nt,nt,-24,-8,nt,-1,4,nt,
O=C(Nc1ccc2c(c1)C(=O)NC2=O)c1cc(Cl)ccc1Cl,0,i,-6,5,8,0,1,-12,
O=C(O)/C=C/C(=O)NCc1cn(-c2ccccc2)nc1-c1cccc(Br)c1,53,i,nt,-11,11,-2,1,8,eIF4H inh retest=-7;PABP FP inh retest=8
CCCOc1ccc(-c2nc[nH]c2[N+](=O)[O-])cc1,3,i,nt,-1,-1,2,2,-15,
Cc1csc(NC(=O)Cc2ccc(Br)cc2)n1,4,i,-21,-45,0,0,2,8,
COc1cccc(NC(=O)C(=O)N/N=C/c2cc(C)n(-c3ccc(Cl)c(Cl)c3)c2C)c1,8,i,-14,nt,-3,-5,-4,13,
COc1ccc(NC(=O)CN(C)C(=O)c2ccc(COc3ccccc3)cc2)cc1,nt,nt,-13,-3,nt,5,-3,nt,
CC1CCN(S(=O)(=O)c2ccc(NC(=S)NC(=O)c3ccc(Cl)cc3)cc2)CC1,-1,i,-9,nt,-2,2,-3,0,
Cc1sc2ncnc(SCC(=O)N3CCCC(C(N)=O)C3)c2c1C (stereo unspecified),nt,i,-18,nt,nt,2,1,-9,
C#CCNc1c(C)c(C)nc2ncnn12,-1,i,-10,-12,6,-3,2,2,
CCC(=O)N1c2ccc(S(=O)(=O)N(CCO)Cc3ccccc3)cc2CC1C (stereo unspecified),-4,i,-38,33,-3,10,0,-16,
O=C(CSc1nc2ccccc2c(=O)n1NC(=O)c1ccccc1)c1ccccc1,12,i,-35,-96,-5,6,5,3,
COc1cc(-c2cc(-c3nnco3)c3ccccc3n2)cc(OC)c1OC,-2,i,nt,-5,-6,11,2,2,
COc1ccccc1NC(=O)C(C)OC(=O)C1COc2ccccc2O1 (stereo unspecified),nt,nt,3,-7,nt,-2,3,nt,
CC(C)(C)NC(=O)c1nn2c(C(F)(F)F)cc(-c3ccccc3)nc2c1Br,10,i,-8,5,6,4,1,-5,
O=C(CSC1=Nc2ccccc2C2CC=NN12)Nc1ccc2c(c1)OCO2 (stereo unspecified),-4,nt,-13,-3,3,1,-3,nt,
CCOc1cccc2sc(N(CCN(C)C)C(=O)CCS(=O)(=O)c3ccccc3)nc12,-5,i,11,14,-14,-1,3,-7,
CCOc1cccc(C(=O)N/N=C/c2ccoc2)c1,0,i,-6,1,-8,-2,3,-5,
Cc1ccccc1-c1cc2nc(NCc3ccc4occc4c3)n(C)c(=O)c2s1,nt,nt,-6,-7,nt,-2,-15,nt,
CC(C)=CC(=O)OCC(=O)Nc1ncc(Cl)c(C)c1Cl,24,i,-14,-89,37,-2,3,-21,
Cc1cc(C(=O)Cn2cnc3cc(F)ccc3c2=O)c(C)n1C1CC1,nt,nt,-8,-18,nt,2,-2,-3,
